# Screening results from PubChem BioAssay.
# FGF22 binding = FGF22 (human) thermal shift binding; recombinant FGF22 thermal shift, SYPRO orange fluorescence; percent of sucrose octasulfate shift, DMSO zero; calls only at 9.99 µM; 340,000 tested, 1.5% active;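 active = melting point raised past a set limit in the mean and every replicate; inconclusive = no clear call; three in four hits are not shown here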
# Target sequence (Q9HCT0 whole entry, looked up): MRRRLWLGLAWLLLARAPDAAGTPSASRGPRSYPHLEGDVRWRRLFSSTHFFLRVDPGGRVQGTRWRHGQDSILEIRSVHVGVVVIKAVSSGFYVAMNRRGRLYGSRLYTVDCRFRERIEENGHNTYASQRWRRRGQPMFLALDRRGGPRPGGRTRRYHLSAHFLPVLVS
# AF4-AF9 inh = inhibitors of human MLL-AF4/AF9 interaction; P42568; AlphaScreen, biotin-AF4 peptide binding to FLAG-AF9; inhibition, % at 10 µM; 350,000 tested, 0.47% active; AID 651704;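 active = every replicate reaching a set inhibition limit, whatever the replicate mean, cut at about 25% in these data; inconclusive = mean inhibition reaches that limit but some replicates miss it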;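 note: 0% = plate neutral control median and 100% = total signal loss; the record names both 10 and 1 µM as test concentration; the first replicate is given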
# Target sequence (P42568 whole entry, looked up): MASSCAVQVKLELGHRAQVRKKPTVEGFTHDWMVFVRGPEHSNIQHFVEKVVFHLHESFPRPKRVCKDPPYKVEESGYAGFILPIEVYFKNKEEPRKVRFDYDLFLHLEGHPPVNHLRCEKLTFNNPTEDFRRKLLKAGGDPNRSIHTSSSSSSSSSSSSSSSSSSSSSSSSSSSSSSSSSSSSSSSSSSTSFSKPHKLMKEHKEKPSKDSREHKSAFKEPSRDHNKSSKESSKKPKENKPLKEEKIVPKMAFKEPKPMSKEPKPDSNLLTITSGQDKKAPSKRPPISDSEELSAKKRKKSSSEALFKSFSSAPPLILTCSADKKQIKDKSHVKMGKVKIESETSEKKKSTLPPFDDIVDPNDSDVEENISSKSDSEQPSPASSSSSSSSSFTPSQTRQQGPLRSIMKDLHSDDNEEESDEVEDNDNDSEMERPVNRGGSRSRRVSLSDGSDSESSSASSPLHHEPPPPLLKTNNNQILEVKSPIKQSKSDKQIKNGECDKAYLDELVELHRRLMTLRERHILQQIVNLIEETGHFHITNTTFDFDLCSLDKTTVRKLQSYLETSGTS
# rRNA inh HTS = selective bacterial rRNA inhibition in E. coli; E. coli WT GFP vs humanized-ribosome RFP mutants, fluorescence, 24 h; active compounds read low; DMSO median 0, no signal -100; GFP signal change (wild-type ribosome), % (concentration not given with the values); 350,000 tested, 1.6% active;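 active = significant combined selectivity score with lowered wild-type GFP, culture density cut under 30%, mutant RFP and density less affected; inactive = any of these conditions unmet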; note: one replicate is shown; some compounds called inactive have numbers as strong as hits
# rRNA inh HTS OD600 = also measured in rRNA inh HTS; calls as there; OD600 change, %; measured here: OD600 growth;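 optical density of the mix in the first replicate; 0 = DMSO median and -100 = no signal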
# rRNA inh HTS RFP = further read-out of rRNA inh HTS, marked with its call; RFP signal change, %; measured here: RFP humanized mutant strains;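 first replicate; 0 = DMSO median and -100 = no signal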
# * = called active by the depositor; i = inactive; ? = inconclusive; + = active, no number; & = joins results of further samples.
SMILES,FGF22 binding,AF4-AF9 inh,rRNA inh HTS,rRNA inh HTS OD600,rRNA inh HTS RFP
C[C@H](CO)N1C[C@H](C)[C@H](CN(C)S(C)(=O)=O)Oc2c(NS(=O)(=O)c3ccc(Cl)cc3)cccc2C1=O,i,-1.8,-4.2,1.1,0.9
Cc1noc(C)c1NC(=O)N(C)C[C@H]1OCc2ccccc2-c2ccccc2C(=O)N([C@H](C)CO)C[C@@H]1C,i,-1.5,3.8,0.9,-3.2
C[C@H]1CN([C@@H](C)CO)C(=O)Cc2cc(NC(=O)Nc3ccccc3)ccc2O[C@H]1CN(C)CC1CCCCC1,i,4.8,-1.5,-29.1,26.2
COc1cccc(-c2nc3n(n2)CCc2ccccc2-3)c1,i,-1.0,-27.6,-44.1,-9.4
O=C(C[C@@H]1C[C@@H]2c3cc(NC(=O)C4CCC4)ccc3O[C@@H]2[C@H](CO)O1)NCc1ccc(-c2ccccc2)cc1,i,-3.1,-0.7,-1.2,2.7
CC(C)NC(=O)N(C)C[C@H]1Oc2ccc(NC(=O)Nc3ccccc3)cc2CC(=O)N([C@@H](C)CO)C[C@@H]1C,i,-1.9,6.7,3.8,-0.8
O=C(NCC[C@@H]1CC[C@@H](NS(=O)(=O)Cc2ccccc2)[C@H](CO)O1)C1CCCC1,i,1.4,-0.8,-4.7,-2.3
O=C(C[C@H]1CC[C@@H](NC(=O)c2cccc(F)c2)[C@@H](CO)O1)Nc1nccs1,i,-1.3,-0.6,0.9,-0.6
O=S(=O)(Cc1ccccc1)N1CCCCN2[C@H](CO)[C@H](c3ccc(-c4cccnc4)cc3)[C@@H]2C1,i,-2.1,-4.7,-2.4,3.9
O=C(CCc1ccccc1Cl)Nc1ccc(S(=O)(=O)Nc2nccs2)cc1,i,?,-3.2,-23.8,2.8
CCOC(=O)C1CCCN(C(=O)c2cccc3ccccc23)CC1 (stereo not given),i,-0.3,4.2,-4.3,1.5
CC(C)NC(=O)Nc1ccc2c(c1)CC(=O)N([C@H](C)CO)C[C@H](C)[C@@H](CN(C)Cc1ccccc1)O2,i,0.4,3.9,1.0,-1.0
O=C(C[C@@H]1C[C@H]2c3cc(NC(=O)Nc4ccccc4)ccc3O[C@H]2[C@H](CO)O1)NC1CCCC1,i,1.9,-10.5,-22.2,0.4
C[C@H]1CN([C@@H](C)CO)C(=O)c2cccc(NS(=O)(=O)c3cccs3)c2O[C@H]1CN(C)Cc1ccncc1,i,0.2,1.1,0.8,-0.5
COc1cc(-c2cnc3c(NC=O)cc(-c4ccccc4Cl)cn23)cc(OC)c1OC,i,-7.0,13.6,11.6,2.8
COc1ccccc1C#Cc1ccc([C@@H]2[C@@H](C#N)N(C(=O)C3CCCCC3)[C@H]2CO)cc1,i,1.5,0.0,3.7,-1.7
C/C=C/c1ccc([C@H]2[C@@H](CN(C)S(C)(=O)=O)N(C(C)=O)[C@H]2CO)cc1,i,2.2,2.0,7.9,-0.8
C[C@@H]1CN([C@H](C)CO)C(=O)c2cc(NC(=O)CCN3CCOCC3)ccc2O[C@H]1CN(C)S(=O)(=O)c1ccc(F)cc1,i,-0.7,1.5,4.7,-0.5
COc1ccc2c3c(n(C)c2c1)[C@H](CO)N(C(=O)CN(C)C)CC31CCN(C(=O)C2CCC2)CC1,i,-0.8,3.1,9.0,-3.5
CC(C)NC(=O)N1C[C@@H]2[C@H](c3ccccc31)[C@H](CO)N2C(=O)c1ccccn1,+,0.7,5.7,2.2,0.6
COc1cccc(-c2ccc([C@@H]3[C@H](CO)N(C(C)=O)C34CN(C(C)=O)C4)cc2)c1,i,-1.5,-0.6,2.4,-0.1
CN1OC[C@@H]2CN(S(=O)(=O)c3cccc(C(F)(F)F)c3)[C@H](c3ccc(-c4cccnc4)cc3)C[C@@H]21,i,1.1,-21.5,-42.1,-7.6
COC(=O)C1CCN(C2CN(Cc3ccc(F)cc3)S(=O)(=O)C2)CC1 (stereo not given),i,-5.3,5.4,11.4,0.5
C[C@H](CO)N1C[C@H](C)[C@@H](CN(C)C(=O)Nc2ccc(C(F)(F)F)cc2)Oc2ccc(NS(C)(=O)=O)cc2C1=O,i,-3.6,1.2,-4.9,0.0
O=C(Nc1ccccc1F)N1C[C@H]2[C@@H](c3ccccc31)[C@@H](CO)N2C(=O)C1CCOCC1,i,-30.1,2.0,2.9,-0.5
C[C@H](CO)N1C[C@H](C)[C@@H](CN(C)Cc2ccncc2)Oc2ccc(NC(=O)Nc3ccccc3)cc2C1=O,i,-1.3,-1.7,-1.6,0.4
CCOC(=O)[C@]12CCCC=C1N(Cc1ccco1)C(=O)[C@H](CC(=O)NCCc1ccccc1OC)C2,i,-0.5,-10.9,-13.5,5.2
C[C@@H]1CN([C@@H](C)CO)C(=O)c2cc(NC(=O)C3CC3)ccc2O[C@H]1CN(C)Cc1ccccc1,i,-0.8,-1.1,-3.5,-3.0
C[C@H]1CN([C@@H](C)CO)C(=O)c2cccc(NC(=O)Nc3ccc(C(F)(F)F)cc3)c2O[C@H]1CN(C)Cc1ccc(C(F)(F)F)cc1,i,-0.6,1.8,3.3,1.0
c1ccc(COc2ncnc3c2ncn3CCCN2CCN(Cc3cccc4ccccc34)CC2)cc1,i,7.7,-45.5,-81.9,-10.4
COc1cccc(NC(=O)N(C)C[C@@H]2Oc3ncc(C#Cc4ccc(F)cc4)cc3C(=O)N([C@H](C)CO)C[C@H]2C)c1,i,-3.3,-7.0,-16.1,8.9
CCCN(C)C[C@H]1Oc2ncc(-c3ccccc3F)cc2C(=O)N([C@H](C)CO)C[C@@H]1C,i,2.9,2.0,6.4,0.8
COc1cccc(NC(=O)N(C)C[C@@H]2Oc3ncc(C#Cc4ccc(F)cc4)cc3C(=O)N([C@@H](C)CO)C[C@H]2C)c1,i,-4.3,-3.8,-11.4,1.0
COc1ccc(NC(=O)c2cc(C3CCCCN3C(=O)c3cc(OC)c(C)c(OC)c3)on2)c(C)c1 (stereo not given),i,2.7,-9.9,-18.4,11.2
CCCN(C)C[C@H]1Oc2ncc(Br)cc2C(=O)N([C@H](C)CO)C[C@@H]1C,i,-0.7,0.5,2.4,-2.1
CCOC(=O)C1=CCN(S(=O)(=O)c2ccccc2Cl)C1c1cccc(C)c1 (stereo not given),i,-1.7,-20.1,-39.6,-5.6
CN(C)CC#Cc1ccc([C@H]2[C@H](CO)N3CCCCN(S(=O)(=O)c4ccccc4)C[C@@H]23)cc1,i,2.5,0.6,10.8,3.3
O=C(CN1CCOCC1)N1CCCCN2[C@@H](CO)[C@H](c3ccc(-c4ccccc4)cc3)[C@@H]2C1,i,5.4,-2.0,3.3,-0.9
CCCCc1c(-c2ccc(F)cc2F)ncn1CCc1ccccc1OC,i,3.1,-62.4,-77.2,-17.9
CCCCc1c(-c2ccccc2OC)ncn1C1CCCC1,i,8.6,-66.1,-78.5,-23.4
Cc1ccccc1-c1cnc2c(c1)C(=O)N([C@H](C)CO)C[C@H](C)[C@H](CN(C)C(=O)c1cccnc1)O2,i,-2.5,1.7,6.5,-3.0
Cc1ccc(S(=O)(=O)N2CCOCC2)cc1NC(=O)COC(=O)CCC(=O)c1ccc(F)cc1,i,-14.3,-0.8,-2.7,-0.8
CNC[C@@H]1Oc2ccc(NC(=O)NC(C)C)cc2CC(=O)N([C@H](C)CO)C[C@@H]1C,i,-1.1,0.3,4.9,1.1
CC(C)(CNC(=O)C1CCN(S(=O)(=O)c2cc([N+](=O)[O-])ccc2Cl)CC1)N1CCOCC1,i,0.8,0.1,4.0,-0.4
O=C(C[C@@H]1CC[C@@H]2[C@H](COC[C@H](O)CN2C(=O)c2ccncc2)O1)NC1CCC1,i,0.2,-2.0,6.7,-0.3
O=C(N[C@@H]1C=C[C@H](CC(=O)N2CCCCC2)O[C@H]1CO)c1ccc2c(c1)OCO2,i,-1.0,1.5,3.6,-0.6
CCN(CC)C(=O)c1csc([C@@H]2O[C@H](CO)[C@H](O)[C@H](O)[C@H]2O)n1,i,-17.5,-0.8,2.0,0.2
CCCNC(=O)N1[C@H](CO)[C@@H]2c3ccccc3N(C)C[C@@H]21,i,-2.1,2.0,6.4,-1.3
O=C1/C(=C\c2ccccc2)CN(C(=O)CCN2CCCCC2)C/C1=C/c1ccccc1,i,-3.3,-50.0,-78.2,-17.1
C[C@H](CO)N1C[C@H](C)[C@H](CN(C)S(=O)(=O)c2ccc(F)cc2)Oc2ccc(NC(=O)Nc3ccc(C(F)(F)F)cc3)cc2CC1=O,i,0.8,0.1,2.8,-1.8

# Another view of part of the listing above:
FGF22 binding	AF4-AF9 inh	rRNA inh HTS	rRNA inh HTS OD600	rRNA inh HTS RFP	molecule
i	0.2	-2.0	6.7	-0.3	O=C(C[C@@H]1CC[C@@H]2[C@H](COC[C@H](O)CN2C(=O)c2ccncc2)O1)NC1CCC1
i	-1.0	1.5	3.6	-0.6	O=C(N[C@@H]1C=C[C@H](CC(=O)N2CCCCC2)O[C@H]1CO)c1ccc2c(c1)OCO2
i	-17.5	-0.8	2.0	0.2	CCN(CC)C(=O)c1csc([C@@H]2O[C@H](CO)[C@H](O)[C@H](O)[C@H]2O)n1
i	-2.1	2.0	6.4	-1.3	CCCNC(=O)N1[C@H](CO)[C@@H]2c3ccccc3N(C)C[C@@H]21

# Continuation:
SMILES,FGF22 binding,AF4-AF9 inh,rRNA inh HTS,rRNA inh HTS OD600,rRNA inh HTS RFP
C[C@@H]1CN([C@H](C)CO)C(=O)c2cc(NC(=O)Cc3ccccc3)ccc2O[C@H]1CN(C)C(=O)Nc1ccccc1,i,-3.0,4.7,11.8,-2.4
CCN(CC)C(=O)C1=C(C)N(CCCOC)C(=O)C(CC(=O)NC2CC2)C1 (stereo not given),i,0.2,5.4,8.1,6.5
CC(C)NC(=O)N(C)C[C@H]1OCCCC[C@H](C)Oc2ccc(NC(=O)CCC(F)(F)F)cc2C(=O)N([C@@H](C)CO)C[C@H]1C,i,-2.1,-0.5,6.2,-2.1
C#CCN(C[C@@H]1[C@@H](OC(=O)Nc2c(C)noc2C)[C@@H](OC(=O)Nc2c(C)noc2C)Cn2c(=O)n(CCCCCC)c(=O)n21)S(=O)(=O)c1ccc(C)cc1,i,2.9,28.5,3.7,39.8
COCC(=O)N(C)C[C@@H]1Oc2ncc(C#C[C@H](C)O)cc2C(=O)N([C@@H](C)CO)C[C@@H]1C,i,-3.3,2.8,13.4,-0.9
COCC#Cc1cnc2c(c1)C(=O)N([C@H](C)CO)C[C@H](C)[C@H](CN(C)C(=O)Nc1cc(F)ccc1F)O2,i,-4.0,1.6,0.8,-1.1
CCCNC(=O)Nc1ccc2c(c1)OC[C@@H](C)N(C(=O)C1CCC1)C[C@@H](C)[C@@H](OC)CN(C)C2=O,i,16.6,1.8,1.4,2.5
C[C@H]1CN([C@@H](C)CO)C(=O)c2cc(NC(=O)Nc3ccc(C(F)(F)F)cc3)ccc2O[C@H]1CN(C)S(=O)(=O)c1ccc(F)cc1,i,-0.1,2.6,15.9,-0.3
NC(=O)c1ccccc1OCC(=O)N1CCCC1c1ccc2c(c1)OCCCO2 (stereo not given),i,2.5,5.8,0.9,1.6
O=S(=O)(Nc1ccc(O)c2ncccc12)c1ccccc1F,i,3.6,4.6,10.2,-2.3
Cc1ccc(S(=O)(=O)Nc2ccc3c(c2)C(=O)N([C@@H](C)CO)C[C@H](C)[C@H](CN(C)Cc2ccncc2)OCCCC[C@H](C)O3)cc1,i,3.9,-3.0,-14.4,2.0
CC(=O)Nc1cc(-c2ccc(C(=O)N3CCOCC3)cc2)cn2c(-c3cccc(C(C)=O)c3)cnc12,i,2.6,6.6,-13.6,0.5
CC(C)CNC(=O)c1[nH]c(C(F)(F)F)nc1-c1ccccc1,i,-0.3,5.6,-2.5,-1.3
CC(C)COC(=O)N(C)C[C@H]1OCc2cnnn2CCCC(=O)N([C@H](C)CO)C[C@H]1C,i,1.9&-0.2&-1.0,6.5&0.0,8.5&0.8,-0.7&-1.5
O=C(C[C@@H]1CC[C@H](NC(=O)c2ccc3c(c2)OCO3)[C@@H](CO)O1)NCc1ccc(Oc2ccccc2)cc1,i,0.1,-3.8,-1.3,0.0
CN(C)CC(=O)N1[C@H](C(=O)NC2CCC2)[C@@H](CO)[C@@H]2Cn3c(ccc(-c4ccccc4)c3=O)[C@@H]21,i,0.1,1.6,18.2,-0.7
C[C@@H]1CCCCO[C@@H](CN(C)C(=O)CCC(F)(F)F)[C@H](C)CN([C@@H](C)CO)C(=O)c2cc(NC(=O)Nc3ccccc3)ccc2O1,i,-2.0,-1.5,-5.2,-2.0
O=C(CCc1c[nH]c2ccccc12)OCC(=O)c1ccccc1,i,-0.3,-12.5,-10.6,3.5
Cc1noc(C)c1S(=O)(=O)Nc1ccc2c(c1)C(=O)N([C@@H](C)CO)C[C@@H](C)[C@@H](CN(C)Cc1ccc(Cl)c(Cl)c1)O2,i,8.6,-8.6,-21.9,5.0
CCCCCC(=O)N1C[C@@H](n2cc(COC(=O)c3ccccc3)nn2)[C@H](O)C[C@@H]1c1ccc(C)cc1,i,-0.4,-36.8,-31.8,-6.1
COc1ccc(CN2CC(COCc3ccccc3)Oc3ccccc3S2(=O)=O)cc1 (stereo not given),i,3.4,12.0,4.6,-0.6

# Not all compounds are listed; rates above refer to the full screens.
